# Source: PubChem BioAssay (National Center for Advancing Translational Sciences (NCATS))
# 2A firefly: Primary qHTS Assay for Foot and Mouth Disease Virus Antivirals against NCGC Sytravon and CBC Compound Libraries: Firefly Luciferase Signal | 120,000 tested, 0.23% active | HEK cells with a luciferase reporter of 2A StopGo recoding | AID 1745856, 2022 | Potency, µM (titrated, usually from 57.5 µM), inactives show at the top dose signal change, negative = less light; active = well fitted falling curve with a large enough effect; inconclusive = small, poorly fitted or top-dose-only effect; inactive = no such curve, though single readings can be large or run the other way; further: nearly all actives have a fitted effect of over 60% in size; overnight with compound
# StopGo RLuc: Primary qHTS Assay for Foot and Mouth Disease Virus Antivirals against NCGC Sytravon and CBC Compound Libraries: Renilla Luciferase Signal; HEK cells with a luciferase reporter of 2A StopGo recoding; Potency, µM (series often up to 57.5 µM), for the others: top-dose signal change, negative = less light; 120,000 tested, 0.32% active; AID 1745857, 2022; active means well fitted falling curve with a large enough effect; inconclusive means small, poorly fitted or top-dose-only effect; inactive means no such curve, though single readings can be large or run the other way; further: nearly all actives have a fitted effect of over 55% in size; overnight with compound
# * marks the source's active call; other numbers are inactive results; ? = inconclusive; & = joins results of further samples; [ ] = remark or other dose. On the % scale 0 is the no-effect control and ±100 the full control effect; potency means the concentration at half of the fitted maximal effect.
Molecule,2A firefly,StopGo RLuc
Cc1ccc(-c2nc(CC(=O)NCCc3ccccc3F)cs2)o1,31%[activator],17%
CC(CC(=O)NCc1ccccc1Cl)S(=O)(=O)c1ccc2c(c1)CCN2C(=O)C1CC1 (configuration not stated),3%,40%[activator]
CCNCC(O)COCc1ccccc1OC (configuration not stated),3%,-1%
NC(N)=NC(N)=Nc1ccccc1Br,4%,5%
COC(=O)C1=C(C)OC(N)=C(C#N)C1c1ccc(C#N)cc1 (configuration not stated),0%,?
COc1ccc(C)cc1NC(=O)c1ccc2c(c1)N(Cc1cccc(Cl)c1)C(=O)c1ccccc1S2=O (configuration not stated),-7%,-12%
Cc1cc(C)c(OCC(=O)N(Cc2ccc(N(C)C)cc2)CC2CCCO2)c(C)c1 (configuration not stated),-15%,86%[activator]
O=C(CSc1oc(-c2ccco2)nc1S(=O)(=O)c1ccc(Br)cc1)c1ccccc1,-19%,3%
Cc1ccc(N2CN(CCN3CCOCC3)Cn3c2nc(C)c(C)c3=O)cc1C,88%[activator],2%
CC(=O)Nc1cccc(OCCc2ccccc2)c1,159%[activator],18%
CCn1c(C)cc(C(=O)COc2ccc3ccc(=O)oc3c2)c1C,31%[activator],4%
CN1CCN(CN2C(=O)C(O)(CC(=O)c3ccccn3)c3ccccc32)CC1 (configuration not stated),9%,-1%
CC1OC(OC2CC[C@]3(C=O)[C@H]4[C@H](O)CC5(C)C(C6=CC(=O)OC6)CCC5(O)[C@@H]4CCC3(O)C2)C(O)C(O)C1O (some centres not stated),?,?
Cc1ccc(Cn2nnc3c2-c2ccccc2S(=O)(=O)N(C2CC2)C3)cc1,0%,203%[activator]
O=C(Nc1ccc(F)c(Cl)c1)C1CCCN1S(=O)(=O)c1ccc(F)cc1 (configuration not stated),-18%,26%
CC(C)C(CNC(=O)c1n[nH]c(=O)c2ccccc12)N(C)C (configuration not stated),-3%,-3%
CCN(CC)c1ccc(S(N)(=O)=O)cc1N,5%,9%
COc1ccc(-c2nc(C)c(CCNC(=O)C(=O)Nc3ccc(C)cc3C)s2)cc1OC,0%,7%
CCCCNCc1ccco1,-1%,0%
Brc1ccc(-c2nnc3ccc(SCc4ccco4)nn23)cc1,2%,-5%
CC1=C(C(N)=O)C(c2ccc(C(C)C)cc2)n2nc(SCc3ccccc3F)nc2N1 (configuration not stated),-22%&-23%,-10%&-6%
CCCCOc1ccc(Cn2c(=O)sc3ccccc32)cc1OC,18%,1%
CCSc1nc2c(c(=O)n(C)c(=O)n2C)n1C/C=C/c1ccccc1,-28%,-13%
O=C(O)C(c1c[nH]c2ccc(Cl)cc12)N1CCN(Cc2ccncc2)CC1 (configuration not stated),-12%,-13%
CC(Oc1ccccc1)C(=O)OCc1cc(=O)n2nc(C(C)C)sc2n1 (configuration not stated),-3%,-3%
O=C(CSCc1nc2sc3c(c2c(=O)[nH]1)CCC3)NCc1ccc(C(F)(F)F)cc1,8%,-5%
Fc1c(F)c(C(F)(F)F)c(F)c(F)c1Sc1c(F)c(F)c(C(F)(F)F)c(F)c1F,0%,-6%
COC(=O)c1ccccc1NS(=O)(=O)c1c(C)cc(C)cc1C,-8%,-10%
Cc1nc2ccc(C(=O)NCc3ccncc3)cc2nc1C,15%,-3%
Cc1ccc(-c2cc(-c3ccccc3)c(C#N)c(SCS(=O)Cc3ccccc3)n2)cc1 (configuration not stated),-5%,-3%
Fc1ccc(-c2cc(-c3ccccc3)c3c(n2)-c2cc(F)ccc2OC3)cc1,-13%,-9%
COc1cccc(-n2c(=O)c3sc4ccccc4c3n(CC(=O)Nc3cccc(Cl)c3)c2=O)c1,32%[activator],-1%
O=S(=O)(NC1CCN(S(=O)(=O)c2ccc(Br)cc2)CC1)c1cccs1,5%,192%[activator]
O=C(Cn1c(=O)n(Cc2ccc3c(c2)OCO3)c(=O)c2ccc(C(=O)NC3CCCCC3)cc21)Nc1ccccc1F,32%,357%[activator]
O=C(NCc1cccc(F)c1)c1ccccc1NC(=O)c1nsc2ccccc12,40%[activator],12%
CC(CNC(=O)/C=C/c1ccc(C(C)(C)C)cc1)NC(=O)/C=C/c1ccc(C(C)(C)C)cc1 (configuration not stated),2%,2%
O=C(NCC1CCCCN1)c1cc(OCC(F)(F)F)ccc1OCC(F)(F)F (configuration not stated),11%[11.5 µM],-2%
CCOC(=O)/C=C/c1cccc(C(C)=O)c1,0%,14%
COc1ccc(CNc2nc(-c3ccccc3)nn2S(=O)(=O)c2ccccc2)cc1,0%,4%
C#CCOc1cccc(C2SCC(=O)Nc3c2c(C)nn3-c2ncnc3nc[nH]c23)c1 (configuration not stated),-2%,0%
C=CCNCc1ccccc1OC,-1%,-6%
COc1ccc(NC(=O)C(=O)NCCN2CCN(C(=O)c3cccc(C)c3)CC2)cc1,4%,-10%
N#Cc1cccc(CNC(=O)c2nccnc2N)c1,-2%,-9%
CCc1ccccc1NC(=O)c1nn(Cc2ccccc2)c(=O)c2ccccc12,0%,0%
Cc1ccc(C(=O)Oc2ccc3c(C(C)C)cc(=O)oc3c2)cc1S(C)(=O)=O,18%,9%
CCN(C(=O)C(C)S(=O)(=O)Cc1ccc(Cl)cc1Cl)c1ccccc1 (configuration not stated),1%,9%
Cc1cccc(NC(=O)CN2CCN(C(=O)NCc3ccccc3Cl)CC2)c1C,64%[activator],11%
Cc1ccc(C(=O)COC(=O)C2CC(=O)N(NC(=O)c3ccc(Cl)c(Cl)c3)C2)cc1C (configuration not stated),-5%,-11%
O=C(CCSc1nc(Cl)nc2nc[nH]c12)NCCc1ccccc1,18%,7%
Cc1ccc(/C=C/c2nc3ccccc3[nH]2)cc1,-74%,-6%

# (next part)
Molecule,2A firefly,StopGo RLuc
Cc1ccccc1NC(=O)COC(=O)c1n[nH]c(=O)c2ccccc12,-4%,-5%
CCCc1nc(NCC2CCCO2)c(C#N)c2c1CCCC2 (configuration not stated),-12%,-7%
CNC(=O)NC(=O)CN(C)C(C)C1CC1 (configuration not stated),-3%,2%
Cc1ccc(-c2nc3ncccc3o2)cc1NC(=O)c1cccc(OCC(C)C)c1,-13%,-15%
Cc1ccc(-c2ccc(OC(=O)c3cnc(C)cn3)cc2)cc1,31%,-11%[1.06 µM]
COc1ccc(/C=C/C(=O)Oc2ccc(C(C)=O)cc2)cc1,?,-11%[1.06 µM]
COc1ccccc1N1CCN(C(=O)Cn2ncc3ccsc3c2=O)CC1,-4%,-7%
Fc1ccc(CSc2nc(-c3ccccc3)cc(C(F)(F)F)n2)cc1,-6%,6%
CCCC1=NN(C(=O)CSCc2ccccc2Cl)C(O)(C(F)(F)F)C1 (configuration not stated),-8%,0%
Cc1nn(S(=O)(=O)c2ccc(C(C)(C)C)cc2)c(C)c1S(=O)(=O)N1CCC(C)CC1,-7%,53%[activator]
Cn1c(NCCCO)nc2c1c(=O)n(Cc1cccc(Cl)c1)c(=O)n2C,-17%,-3%
COc1ccc(S(=O)(=O)N2c3ccc(Br)cc3C(C)=CC2(C)C)cc1,?,-32%
CN(C)C(CNC(=O)Cc1c[nH]c2ccccc12)c1ccccc1 (configuration not stated),-4%,-17%
COc1ccc(OCC(=O)NCC2(N3CCN(C)CC3)CCCCC2)cc1,-26%,-17%
COc1cccc(CNC(=O)COCc2cc(-c3ccc4c(c3)OCO4)on2)c1,2%,1%
CC1=Nc2cc(C(=O)NCc3ccc(C)cc3)ccc2Sc2ccc(Cl)cc21,-18%,111%[activator]
COc1cc(C(=O)Nc2c(NC3CCCCC3)c3ccccc3oc2=O)ccc1OC(C)=O,25%,19%
CN(C)S(=O)(=O)c1ccc(-c2nc(C#N)c(N3CCN(c4cccc(Cl)c4)CC3)o2)cc1,7%,3%
Cc1cccc(CC(=O)NC2CC(=O)N(c3ccccc3)C2)c1 (configuration not stated),-16%,-3%
Cc1ccc(-c2nnn(CC(=O)N(C)Cc3ccc(Cl)s3)n2)cc1,19%,9%
COc1cccc(CNC(=O)CCc2c(C)nc3c(c2C)c(=O)n(C)c(=O)n3C)c1,-40%,-18%
CCCOc1ccc(NC(=O)c2cccc(OCC)c2)c2cccnc12,-3%,-15%
CCN(CC)c1nc2c(c(=O)n(C)c(=O)n2C)n1CC(=O)c1ccc(Br)cc1,2%,-8%
Cc1c(C)n(Cc2ccncc2)c2ncn3nc(Cc4ccccc4)nc3c12,-14%,-18%
CC(Sc1nc(-c2ccccc2)c(-c2ccccc2)o1)C(=O)N1CCCC1 (configuration not stated),15%,28%
CCC(CC)NC(=O)Nc1ccc(Cl)cc1Cl,0%,1%
C/C=C/Cn1c(SC(C)CC)nc2c1c(=O)[nH]c(=O)n2C (configuration not stated),6%,-2%
Cc1cccc(C(C)NNC(=O)C(O)(c2cccc(C)c2)c2cccc(C)c2)c1 (configuration not stated),-15%,10%
N#Cc1ccc(CS(=O)(=O)Cc2ccccc2F)cc1,-5%,-15%
COc1ccc(CNC(=O)/C=C/c2ccccc2)cc1,0%,6%
N#Cc1ccccc1CNc1ccc(Br)cc1F,183%[activator],11%
CC(O)CNc1nc2c(c(=O)n(Cc3ccccc3)c(=O)n2C)n1Cc1ccccc1 (configuration not stated),-13%,-11%
COC(=O)C(C)Oc1ccc2c(=O)c(-c3ccc(Cl)cc3)c(C(F)(F)F)oc2c1 (configuration not stated),10%,0%
CC(C)CN(C(=O)c1cc2c(s1)CCCCC2)c1c(N)n(CC(C)C)c(=O)[nH]c1=O,0%,-5%
CC1Cc2cc(-c3csc(NC4CCCC4)n3)ccc2N1S(C)(=O)=O (configuration not stated),0%,27%
CCCC(=O)n1nc(-c2ccco2)nc1NCc1ccccc1Cl,16%,4%
CN(CC(=O)Nc1cccc(F)c1)C(=O)C1CCN(c2ccc(C#N)cn2)CC1,-7%,-17%
COc1ccc(-c2cc(C(=O)N3CCN(C(=O)C(=O)N4CCOCC4)CC3)c3ccccc3n2)cc1,233%[activator],62%[activator]
CCOC(=O)c1sc2ncn(CC(=O)Nc3ccc(OC)c(Cl)c3)c(=O)c2c1C,-17%,-10%
COc1cc(OC)c(C2=CCN(C(=O)C(C)Oc3ccc(Br)cc3)CC2)c(OC)c1 (configuration not stated),?,-7%
COc1ccc(NC2=C(C(=O)N3CCOCC3)S(=O)(=O)c3ccccc32)cc1,4%,8%
CC(=O)Nc1cccc(C(C)NC(=O)C=C2CCCC2)c1 (configuration not stated),20%,15%
COc1ccc(C)cc1-n1nnnc1SCc1noc(CC(C)C)n1,1%,45%[activator]
CCCCCCCCCCCCS(=O)CC(Cl)CO (configuration not stated),?,?
CCC1=C(c2ccc(C)cc2)S(=O)(=O)N=C1N1CCC(C(=O)NCCc2cccc(OC)c2)CC1,-25%,33%[activator]
CCc1cccc(C)c1NS(=O)(=O)c1ccccc1C(F)(F)F,4%,30%[activator]
Cc1ccc(S(=O)(=O)N2CCCC2c2cc(C(C)C)no2)cc1C (configuration not stated),-24%,15%
CCSc1nc2n(n1)C(c1ccc(Cl)cc1Cl)C(C(=O)Nc1ccccc1C)=C(C)N2 (configuration not stated),-1%,6%
Cc1nc2cccnc2n1-c1cccc(C(=O)NCCN(C)C)c1,-18%,-9%
CCc1ccc(-c2nc(COC(=O)c3c(C)nsc3N)cs2)cc1,?,1.4µM*

# More results follow:
Molecule,2A firefly,StopGo RLuc
CC(=O)c1cccc(NS(=O)(=O)c2cc3c(cc2C)n(C)c(=O)c(=O)n3C)c1,11%,69%[activator]
O=C(NCc1coc(-c2cccs2)n1)c1ccc(Cl)cc1,-6%,5%
COc1ccc(N2CCCCS2(=O)=O)cc1S(=O)(=O)NCc1ccncc1,16%,1%
Cc1ccc(-c2cn3ccccc3n2)cc1NS(=O)(=O)c1ccccc1,108%[activator],143%[activator]
CC(C)c1noc(CN2CCC(NC(=O)c3cnn(C)c3)CC2)n1,-2%,-5%
Cc1nc2ncnn2c(C)c1CCC(=O)N1CCN(c2ccccc2)CC1,-16%,-23%
O=C(O)/C=C/c1cccc(NS(=O)(=O)/C=C/c2ccccc2)c1,4%,77%[activator]
COc1ccc(N2CC(NC(=O)c3ccc4c(c3)OCO4)CC2=O)cc1OC (configuration not stated),-5%,-8%

# Only part of the results is shown; the hit share may differ from the screen's.
